Bioassay records: PubChem, Broad Institute
NOMO-1 viab: STK33 inhibitor candidate reducing NOMO-1 cell viability; NOMO-1 AML viability, CellTiter-Glo luminescence, 72 h; 7.5% of 37,000 active; inhibition, % (test concentration not listed); AID 2330;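 active = most replicates above 80%; inconclusive = exactly half above 80%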;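 note: wells of about 30 µL received 25 nL stock; 0% = median of vehicle wells and 100% = reference inhibitor level; the first replicate is given; inactives centre near 10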
The depositor's hits bear a star; ? = inconclusive. Some of the compounds tested; the hit share may differ from the screen's.

SMILES	NOMO-1 viab
COc1ccc(NC(=O)N(C)C[C@H]2Oc3ccc(NS(=O)(=O)c4ccc(Cl)cc4)cc3CC(=O)N([C@H](C)CO)C[C@H]2C)cc1	6.1
C[C@@H]1CN([C@H](C)CO)C(=O)Cc2cc(NC(=O)CCC(F)(F)F)ccc2O[C@@H]1CN(C)S(=O)(=O)c1ccccc1	4.8
CCN(C(=O)c1cnccc1C(F)(F)F)c1nc2cc(Cl)ccc2s1	47.8
Cc1cc(C)c(NC(=O)CN(c2cccc([N+](=O)[O-])c2)S(C)(=O)=O)c(C)c1	15.7
CCc1cc(OCCCSc2nc(C)cc(=O)[nH]2)ccc1Cl	57.5
Cc1ccc(C)c(Cn2c(CCCO)nc3ccccc32)c1	34.7
Cc1ccc(S(=O)(=O)Nc2cccc3c2O[C@H](CN(C)Cc2ccc(Oc4ccccc4)cc2)[C@@H](C)CN([C@@H](C)CO)C3=O)cc1	12.3
CC(C)NC(=O)N(C)C[C@H]1Oc2c(NC(=O)Nc3ccccc3)cccc2C(=O)N([C@@H](C)CO)C[C@H]1C	2.4
c1ccc2cc3c(Nc4ccc(N5CCOCC5)cc4)ccnc3cc2c1	136.3*
O=C(Cn1cnc2ccccc2c1=O)Nc1ccc(I)cc1	2.1
C[C@H]1CN([C@@H](C)CO)C(=O)Cc2cc(NC(=O)C3CC3)ccc2O[C@@H]1CN(C)Cc1ccccc1	14.8
C[C@@H]1CN([C@H](C)CO)C(=O)c2cccc(NC(=O)Nc3ccccc3)c2O[C@@H]1CN(C)C	0.4
COc1ccc(NC(=O)N(C)C[C@@H]2OCCCC[C@@H](C)Oc3ccc(NC(=O)Nc4ccccc4)cc3C(=O)N([C@H](C)CO)C[C@@H]2C)cc1	12.2
COc1ccc(S(=O)(=O)Nc2ccc3c(c2)C(=O)N([C@H](C)CO)C[C@@H](C)[C@@H](CN(C)Cc2ccc(C(=O)Nc4ccccc4N)cc2)O3)cc1	108.4*
C[C@H](CO)N1C[C@H](C)[C@H](CN(C)S(C)(=O)=O)Oc2ccc(NS(=O)(=O)c3ccc(F)cc3)cc2CC1=O	-7.8
C[C@H]1CN([C@@H](C)CO)C(=O)c2cccc(NC(=O)C3CCCCC3)c2O[C@@H]1CN(C)S(=O)(=O)c1ccccc1	27.4
CNC[C@@H]1Oc2ccc(NS(=O)(=O)c3cn(C)cn3)cc2CC(=O)N([C@@H](C)CO)C[C@@H]1C	-1.6
CS(=O)(=O)N(CC(=O)Nc1cc(Cl)ccc1Cl)c1ccc(Oc2ccccc2)cc1	-0.1
C[C@H]1CN([C@@H](C)CO)C(=O)Cc2cc(NS(=O)(=O)c3ccc(Cl)cc3)ccc2O[C@H]1CN(C)S(=O)(=O)c1ccccc1	1.3
C[C@H](CO)N1C[C@H](C)[C@@H](CN(C)Cc2ccc(Oc3ccccc3)cc2)Oc2ccc(NC(=O)c3ccncc3)cc2C1=O	18.6
Cc1nn(CC(=O)Nc2cccnc2)c(C)c1[N+](=O)[O-]	-22.7
C[C@H](CO)N1C[C@H](C)[C@@H](CN(C)Cc2ccc3c(c2)OCO3)Oc2c(NC(=O)C3CCOCC3)cccc2C1=O	20.1
C[C@H](CO)N1C[C@H](C)[C@H](CN(C)Cc2ccc(C(=O)Nc3ccccc3N)cc2)Oc2ccc(NC(=O)Nc3ccccc3)cc2C1=O	?
O=C(O)CCC(=O)Cc1ccccc1	3.5
CC(C)NC(=O)Nc1ccc2c(c1)C(=O)N([C@@H](C)CO)C[C@@H](C)[C@H](CN(C)Cc1ccc(C(F)(F)F)cc1)O2	11.5
COC(=O)c1cccc(NC(=O)COc2ccc([N+](=O)[O-])cc2)c1	-5.2
C[C@@H]1CN([C@@H](C)CO)C(=O)Cc2cc(NC(=O)c3ccncc3)ccc2O[C@@H]1CN(C)S(=O)(=O)c1ccc(F)cc1	-13.5
O=C1C(=O)N(CCCN2CCOCC2)C(c2cccnc2)C1C(=O)c1cc2ccccc2o1 (configuration not stated)	-10.4
C[C@H](CO)N1C[C@H](C)[C@@H](CN(C)S(=O)(=O)c2ccc(Cl)cc2)Oc2ccc(NC(=O)Nc3ccc(F)cc3)cc2C1=O	-5.2
COc1ccc(NC(=O)Nc2ccc3c(c2)C(=O)N([C@@H](C)CO)C[C@H](C)[C@@H](CN(C)S(=O)(=O)c2cccs2)O3)cc1	15.3
COc1ccc(S(=O)(=O)N(C)C[C@@H]2OCCCC[C@@H](C)Oc3ccc(NC(=O)Nc4ccc(C(F)(F)F)cc4)cc3C(=O)N([C@H](C)CO)C[C@@H]2C)cc1	38.7
COc1ccc(C(=O)N2c3ccccc3CCc3ccccc32)cc1	103.9*
C[C@H]1CN([C@@H](C)CO)C(=O)c2cc(NS(=O)(=O)c3ccc(F)cc3)ccc2O[C@H]1CN(C)C(=O)NC1CCCCC1	5.2
Cc1ccc(N(CC(=O)Nc2ccc(Br)cc2F)S(C)(=O)=O)cc1C	-2.1
COc1ccc(-c2nc(SCC(=O)Nc3cccc(F)c3)n[nH]2)cc1	21.9
C[C@@H]1CN([C@@H](C)CO)C(=O)c2cc(NC(=O)CCN3CCOCC3)ccc2O[C@H]1CN(C)S(=O)(=O)c1cccs1	12.1
Cc1noc(C)c1NC(=O)Nc1ccc2c(c1)CC(=O)N([C@@H](C)CO)C[C@H](C)[C@H](CN(C)Cc1ccc(C(=O)Nc3ccccc3N)cc1)O2	87.6*
C[C@H](CO)N1C[C@H](C)[C@@H](CN(C)Cc2ccc(C(=O)Nc3ccccc3N)cc2)Oc2ccc(NC(=O)CCN3CCOCC3)cc2C1=O	?
CCc1ccc(CN2CCN(Cc3ccc4c(c3)OCO4)CC2)cc1	32.3
Cc1cccc(C)c1OCCCCNCCO	15.8

Part of the list above in order of SMILES length, largest number first.
SMILES	NOMO-1 viab
Cc1noc(C)c1NC(=O)Nc1ccc2c(c1)CC(=O)N([C@@H](C)CO)C[C@H](C)[C@H](CN(C)Cc1ccc(C(=O)Nc3ccccc3N)cc1)O2	87.6*
CC(C)NC(=O)Nc1ccc2c(c1)C(=O)N([C@@H](C)CO)C[C@@H](C)[C@H](CN(C)Cc1ccc(C(F)(F)F)cc1)O2	11.5
Cc1cccc(C)c1OCCCCNCCO	15.8

The listing continues.
SMILES	NOMO-1 viab
C[C@@H]1CN([C@@H](C)CO)C(=O)c2cccc(NC(=O)Nc3cccc4ccccc34)c2O[C@H]1CN(C)C(=O)Nc1ccc(F)cc1	46.1
C[C@H]1CN([C@@H](C)CO)C(=O)Cc2cc(NC(=O)Nc3ccccc3)ccc2O[C@H]1CN(C)Cc1ccc(C(=O)O)cc1	1.1
C[C@@H]1CCCCO[C@@H](CN(C)C(=O)c2ccccc2)[C@@H](C)CN([C@H](C)CO)C(=O)c2cc(N(C)C)ccc2O1	17.0
C[C@@H]1CN([C@@H](C)CO)C(=O)c2cccc(NS(C)(=O)=O)c2O[C@@H]1CN(C)Cc1ccc(Cl)c(Cl)c1	8.7
COc1cccc(C(=O)NCCN2CCOCC2)c1	6.5
C[C@H](CO)N1C[C@H](C)[C@H](CN(C)Cc2ccc(Oc3ccccc3)cc2)Oc2ccc(NS(=O)(=O)c3ccccc3)cc2CC1=O	96.5*
Cc1ccc(S(=O)(=O)N2C3C=CC(C3)C2C(=O)O)cc1 (configuration not stated)	-26.0
C[C@@H]1CN([C@H](C)CO)C(=O)c2cccc(NS(C)(=O)=O)c2O[C@H]1CN(C)C(=O)Nc1ccccc1	3.6
Cc1ccc(S(=O)(=O)N(C)C[C@H]2Oc3ccc(N(C)C)cc3CC(=O)N([C@@H](C)CO)C[C@H]2C)cc1	12.1
C[C@@H]1CCCCO[C@H](CN(C)C(=O)CCCN(C)C)[C@@H](C)CN([C@H](C)CO)C(=O)c2cc(NS(=O)(=O)c3ccc(Cl)cc3)ccc2O1	-6.5
Cc1ccc(S(=O)(=O)N(C)C[C@@H]2OCCCC[C@@H](C)Oc3ccc(NS(=O)(=O)c4ccc(Cl)cc4)cc3C(=O)N([C@H](C)CO)C[C@@H]2C)cc1	52.2
C[C@@H]1CCCCO[C@@H](CN(C)C(=O)C2CCCCC2)[C@@H](C)CN([C@H](C)CO)C(=O)c2cc(NC(=O)Cc3ccccc3)ccc2O1	2.3
N#Cc1nc(-c2ccccc2F)oc1NCCN1CCOCC1	-2.0
O=[N+]([O-])c1cccc(NC(=S)NCCn2cc(Br)cn2)c1	18.4
Cc1noc(C)c1NC(=O)Nc1cccc2c1O[C@H](CN(C)Cc1ccc(Cl)c(Cl)c1)[C@@H](C)CN([C@@H](C)CO)C2=O	5.2
CSc1cc(C(F)(F)F)c(C(=O)Nc2c(C)cccc2C)cn1	21.0
Cc1noc(C)c1NC(=O)N(C)C[C@@H]1Oc2ccc(NS(=O)(=O)c3ccc(F)cc3)cc2C(=O)N([C@@H](C)CO)C[C@@H]1C	32.5
CS(=O)(=O)CCC(C(=O)N1CCOCC1)N1C(=O)c2ccc(Br)cc2C1=O (configuration not stated)	20.8
COc1ccc(S(=O)(=O)Nc2ccc3c(c2)C(=O)N([C@H](C)CO)C[C@@H](C)[C@@H](CN(C)C)O3)cc1	24.3
C[C@H](CO)N1C[C@H](C)[C@H](CN(C)C(=O)Nc2ccc(F)cc2)Oc2ccc(NC(=O)CCN3CCOCC3)cc2CC1=O	-16.3
COc1ccc(CN(C)C[C@H]2Oc3ccc(NC(=O)Nc4ccc(OC)cc4)cc3CC(=O)N([C@@H](C)CO)C[C@@H]2C)cc1	1.4
COc1cc(CC2COC(c3ccc(O)c(OC)c3)C2COC(C)=O)ccc1O (configuration not stated)	-23.1
CNC[C@@H]1Oc2ccc(NC(=O)Cc3ccccc3)cc2CC(=O)N([C@@H](C)CO)C[C@@H]1C	18.4
C[C@H](CO)N1C[C@H](C)[C@H](CN(C)C(=O)Nc2cccc3ccccc23)Oc2ccc(NC(=O)NC3CCCCC3)cc2CC1=O	9.7
C[C@H](CO)N1C[C@H](C)[C@@H](CN(C)Cc2ccccc2)Oc2ccc(NC(=O)CCCN(C)C)cc2C1=O	10.0
O=C(NCc1ccco1)c1cncc(Br)c1	3.8
C[C@H]1O[C@@H](O[C@H]2C[C@H]3C(=O)C[C@]4(C)C(=CCC5[C@@]6(C)CC[C@H](O[C@@H]7OC[C@@H](O)[C@H](O)[C@H]7O)[C@@](C)(C=O)C6CC[C@]54C)[C@@H]3CC2(C)C)[C@H](O)[C@@H](O)[C@@H]1O[C@@H]1O[C@H](C(=O)O)[C@@H](O)[C@H](O)[C@H]1O (some centres not stated)	-3.7
Cc1noc(C)c1NC(=O)Nc1ccc2c(c1)CC(=O)N([C@@H](C)CO)C[C@H](C)[C@@H](CN(C)CC1CC1)O2	21.4
C[C@H](CO)N1C[C@H](C)[C@H](CN(C)Cc2ccc(Oc3ccccc3)cc2)Oc2ccc(NC(=O)CCC(F)(F)F)cc2CC1=O	39.5
CC(C)NC(=O)N(C)C[C@@H]1Oc2ccc(NC(=O)Nc3ccc(C(F)(F)F)cc3)cc2CC(=O)N([C@H](C)CO)C[C@@H]1C	49.7
Cc1sc(NC(=O)c2ccccc2)c(C(=O)NCc2cccnc2)c1C	4.2
Cc1nnc(NC2(C(F)(F)F)C(=O)Nc3c2c(=O)n(C)c(=O)n3C)s1 (configuration not stated)	-23.2
CC1CC[C@]2(C(=O)O)CC[C@]3(C(=O)O)C(=CCC4[C@@]5(C)CC[C@H](OC6OC(C)C(O)C(OC7OC(CO)C(O)C(O)C7O)C6O)C(C)(C)C5CC[C@]43C)C2C1C (some centres not stated)	2.0
C[C@@H]1CCCCO[C@H](CN(C)Cc2ccc3c(c2)OCO3)[C@@H](C)CN([C@H](C)CO)C(=O)c2cc(NC(=O)Nc3ccc4c(c3)OCO4)ccc2O1	32.5
Cc1ccccc1NC(=O)CSc1nnc(C23CC4CC(CC(C4)C2)C3)o1	17.5
CNC[C@@H]1Oc2c(NC(=O)c3ccc(-c4nccs4)cc3)cccc2C(=O)N([C@H](C)CO)C[C@@H]1C	23.9
C[C@H](CO)N1C[C@H](C)[C@H](CN(C)Cc2ccc(C(=O)O)cc2)Oc2ccc(NC(=O)Cn3cnnn3)cc2CC1=O	3.8
C[C@@H]1CCCCO[C@@H](CN(C)C(=O)Nc2ccc(C(F)(F)F)cc2)[C@@H](C)CN([C@H](C)CO)C(=O)c2cc(NC(=O)Nc3ccccc3)ccc2O1	66.2
C[C@@H]1CN([C@H](C)CO)C(=O)c2cc(NS(=O)(=O)c3cn(C)cn3)ccc2O[C@H]1CN(C)Cc1ccc(Oc2ccccc2)cc1	20.6
C[C@H]1CN([C@@H](C)CO)C(=O)c2cc(NC(=O)CCCCCC(=O)Nc3ccccc3N)ccc2O[C@@H]1CN(C)C	5.2

Taken from above for reference:
SMILES	NOMO-1 viab
CC(C)NC(=O)N(C)C[C@@H]1Oc2ccc(NC(=O)Nc3ccc(C(F)(F)F)cc3)cc2CC(=O)N([C@H](C)CO)C[C@@H]1C	49.7
Cc1sc(NC(=O)c2ccccc2)c(C(=O)NCc2cccnc2)c1C	4.2
Cc1nnc(NC2(C(F)(F)F)C(=O)Nc3c2c(=O)n(C)c(=O)n3C)s1 (configuration not stated)	-23.2
CC1CC[C@]2(C(=O)O)CC[C@]3(C(=O)O)C(=CCC4[C@@]5(C)CC[C@H](OC6OC(C)C(O)C(OC7OC(CO)C(O)C(O)C7O)C6O)C(C)(C)C5CC[C@]43C)C2C1C (some centres not stated)	2.0
C[C@@H]1CCCCO[C@H](CN(C)Cc2ccc3c(c2)OCO3)[C@@H](C)CN([C@H](C)CO)C(=O)c2cc(NC(=O)Nc3ccc4c(c3)OCO4)ccc2O1	32.5
Cc1ccccc1NC(=O)CSc1nnc(C23CC4CC(CC(C4)C2)C3)o1	17.5
CNC[C@@H]1Oc2c(NC(=O)c3ccc(-c4nccs4)cc3)cccc2C(=O)N([C@H](C)CO)C[C@@H]1C	23.9
C[C@H](CO)N1C[C@H](C)[C@H](CN(C)Cc2ccc(C(=O)O)cc2)Oc2ccc(NC(=O)Cn3cnnn3)cc2CC1=O	3.8
C[C@@H]1CCCCO[C@@H](CN(C)C(=O)Nc2ccc(C(F)(F)F)cc2)[C@@H](C)CN([C@H](C)CO)C(=O)c2cc(NC(=O)Nc3ccccc3)ccc2O1	66.2
C[C@@H]1CN([C@H](C)CO)C(=O)c2cc(NS(=O)(=O)c3cn(C)cn3)ccc2O[C@H]1CN(C)Cc1ccc(Oc2ccccc2)cc1	20.6
C[C@H]1CN([C@@H](C)CO)C(=O)c2cc(NC(=O)CCCCCC(=O)Nc3ccccc3N)ccc2O[C@@H]1CN(C)C	5.2
